# Mtb hypoxia inh = PubChem AID 1159583; M. tuberculosis hypoxia-regulated fluorescent reporter, fluorescence; 300,000 tested, 0.1% active; fluorescence inhibition, % (no concentration beside the values);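 active = 35 to 45% if threefold the growth effect, above 45% if 1.5-fold the growth effect; inactive = the rest, general growth blockers included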;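 also: wells of about 50 µL received 100 nL stock; 0% = vehicle wells and 100% = reference inhibitor wells; whole bacteria with a GFP reporter of the hypoxia response; strong numbers were not always called active; many hits fall short of the cut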
# BJeLR viability = MLPCN primary cell-based screen for lethality selective to Ras in HRASV12 cells; inhibition, % (concentration not given with the values); 300,000 tested, 0.17% active; BJeLR (HRASV12) viability, CellTiter-Glo ATP luminescence, 48 h; reference of the scale not given here;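 active = replicate mean above 50%; inconclusive = above 50% but judged a plate artefact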;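 also: 50 nL library stock added to about 25 µL; numbers are from one replicate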
# RN4220 kill = growth inhibition of S. aureus RN4220, primary screen, OD600 | 16 h | inhibition, % (no concentration beside the values) | 330,000 tested, 0.33% active;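 active = z-score of -3 or lower and OD600 up to 0.18 on both plates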;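 also: plate controls were untreated cells for no effect and reference antibiotic for full effect; stock transfer was 100 nL into about 80 µL; one replicate is shown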
# ugtP null kill = growth inhibition of ugtP-null S. aureus, primary screen, RN4220 ugtP deletion, OD600; 16 h; some inactives read as strong as hits; growth inhibition, % (concentration not given with the values); 330,000 tested, 0.54% active; AID 1259309, 2017;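 active = z-score under -3 and OD600 up to 0.15 on both plates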;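 also: plate controls were untreated wells for no effect and antibiotic for full effect; wells of about 80 µL received 100 nL stock; the first replicate is given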
# PrP UTR inh = inhibition of PrP 5' UTR reporter expression; inhibition, % (concentration not given with the values); 340,000 tested, 0.35% active; cell-based PrP 5' UTR mRNA reporter, plate reader;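 active = every replicate at 50% or more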;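 also: 0 = median of the neutral control wells; tested in H4 reporter cells; numbers are from one replicate; inactives centre near -14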
# Bead autofluor = compound fluorescence in toxin protease inhibitor counterscreen; compound autofluorescence counterscreen, microsphere flow cytometry; active compounds read high; fluorescence intensity (no concentration beside the values); 360,000 tested, 3.1% active;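 active = at least 3 SD above the mean of all compounds, about 16000 in these data; inconclusive = too few beads counted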;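 also: 100 nL of 1 mM stock went into each well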
# Mtb hypoxia inh growth = further read-out of Mtb hypoxia inh, marked with its call; growth inhibition, %; measured here: M. tuberculosis growth (absorbance);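 0% = vehicle and 100% = reference antibiotic; read after six days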
# An asterisk follows results filed as active; ? = inconclusive; . = not tested or not shown; & = joins results of further samples.
SMILES,Mtb hypoxia inh,Mtb hypoxia inh growth,BJeLR viability,RN4220 kill,ugtP null kill,PrP UTR inh,Bead autofluor
CCCn1c(SCC(=O)NNC(=O)c2ccccc2)nnc1-c1cccnc1,1,10,3,4.5,15,-12,3530
NC(=Nc1ccccc1)N(c1ccccc1)c1ccccc1,-11,-13,.,1.5,-3,-40,2833
CCCN1C(=O)c2cc(C(=O)Nc3cccc(C(C)=O)c3)ccc2C1Nc1cccc(C(C)=O)c1 (configuration not stated),-7,-4,8,-3.5,-3,-10,5291
C=C(C)c1cccc(C(C)(C)NC(=O)Nc2ncccn2)c1,1,5,3,5.7,12,-59,?
Cc1ccc(NC(=O)C2CCCCC2)cc1C,17,14,.,6.1,0,-36,3831
N#CCOc1coc(CN2CCN(c3cccc(Cl)c3)CC2)cc1=O,18,4,9,-0.5,3,-14,5871
COc1ccc(-c2cc(C(=O)Nc3cc(OC)cc(C(=O)Nc4cccc(C(F)(F)F)c4)c3)[nH]n2)cc1,-6,-9,7,4.5,-50,-32,3543&3584
c1ccc(C2=Nn3c(nnc3-c3n[nH]c4c3CCC4)SC2)cc1,.,.,-2,3.5,11,-28,2650
c1ccc2nc(-c3nc4ccccc4[nH]3)ccc2c1,16,13,35,5.7,-8,14,2475
Cc1ccc(S(=O)(=O)NCc2ccc(/C=C(/C#N)C(=O)NCc3ccccc3)o2)cc1,-3,-4,-12,1.0,-1,-42,2435
[N-]=[N+]=NCCN1CCN(CCc2ccccc2)CCC1=O,2,0,-11,0.3,-2,-22,4091
CC(C)CCCN1C(Nc2ccccc2)=NC[C@@H]1C,.,.,-3,.,.,-15,3926
CCCCCCSc1cc(-c2nc3cnccn3c2NCc2ccccc2)ccc1OC,0,-8,-6,1.1,-3,-2,3758
COCCn1c(SCC(=O)N2CCCCC2)nc2c([nH]c3ccccc32)c1=O,-4,-6,7,3.4,-4,-16,5090
CN1CCN2c3ccc(N)cc3CC3(C(=O)NC(=O)NC3=O)C2C1 (configuration not stated),7,7,-9,1.2,-8,.,3365
Cc1cccc(N2C(=O)C3C4CC(=O)C(c5ccccc54)C3C2=O)c1C (configuration not stated),13,8,3,13,6,-11,2176
CSc1nc2ncc(-c3ccsc3)c(N)n2n1,7,-3,1,4.8,-1,-9,4863
CCN(CC)CCCN1CC(=O)N2[C@@H](Cc3c([nH]c4ccccc34)C2(C)C)C1=O,8,8,-2,1.0,10,-8,3580
COC(=O)[C@H](C)NC(=O)Nc1ccc(C)c(C)c1,13,7,-8,-13,-4,-28,3695
CCOC(=O)Cc1nnc(Nc2ccc(C)cc2C)c2ccccc12,6,-5,0,4.2,8,-12,2592

# An excerpt from above in order of heavy-atom count, low to high.
SMILES,Mtb hypoxia inh,Mtb hypoxia inh growth,BJeLR viability,RN4220 kill,ugtP null kill,PrP UTR inh,Bead autofluor
CSc1nc2ncc(-c3ccsc3)c(N)n2n1,7,-3,1,4.8,-1,-9,4863
COC(=O)[C@H](C)NC(=O)Nc1ccc(C)c(C)c1,13,7,-8,-13,-4,-28,3695
CC(C)CCCN1C(Nc2ccccc2)=NC[C@@H]1C,.,.,-3,.,.,-15,3926
CN1CCN2c3ccc(N)cc3CC3(C(=O)NC(=O)NC3=O)C2C1 (configuration not stated),7,7,-9,1.2,-8,.,3365
CCOC(=O)Cc1nnc(Nc2ccc(C)cc2C)c2ccccc12,6,-5,0,4.2,8,-12,2592
COCCn1c(SCC(=O)N2CCCCC2)nc2c([nH]c3ccccc32)c1=O,-4,-6,7,3.4,-4,-16,5090

# (continued)
SMILES,Mtb hypoxia inh,Mtb hypoxia inh growth,BJeLR viability,RN4220 kill,ugtP null kill,PrP UTR inh,Bead autofluor
CC(C)C12CN3CC(C(C)C)(CN(C1)C3c1ccccc1)C2O (configuration not stated),4,-3,-8,5.6,11,-2,5668
O=C(OCC(=O)N1CCCCC1)c1c[nH]c(=O)[nH]c1=O,.,.,-3,-1.6,6,-13,3371
CCOC(=O)C1(Cc2ccccc2)CCCN(C(=O)c2cnn(CC)c2)C1 (configuration not stated),0,-1,1,6.2,-2,-111,5662
COc1ccc2[nH]c3c(c2c1)CCN1C(=O)C(CC(=O)NCCCN(C)C)C[C@H](C(=O)N(C(C)C)C(C)C)[C@@]31C (some centres not stated),-12,-5,.,-2.7,-2,-12,4177
Cc1ccc(C(=O)N/C(=C/c2ccc(F)cc2)C(=O)NCc2ccncc2)cc1,-12,16,2,-0.2,1,-31,2570
CC(=NNC(=O)c1ccc(Cl)cc1)c1cccs1,-3,-1,.,1.9,-6,.,.
C=C(C)C(O)CC/C(C)=C/Cc1c(O)ccc(C(=O)/C=C/c2ccc(O)cc2)c1O (configuration not stated),.,.,.,99*,91*,-3,4058
COc1ccc(CCN2CCCC(CN(C)Cc3cc(OC)ccc3OC)C2)cc1 (configuration not stated),-5,9,-5,-1.9,0,-9,4556
O=c1[nH]c(O)c(C=NCCc2ccccc2)c(=O)[nH]1,-2,-4,-4,1.3,3,-15,5583
COc1ccc(C(C)C)cc1S(=O)(=O)Nc1ccc(Cl)cn1,5,7,-7,4.3,0,-17,22386*
Cc1ccc(C(c2c(C)nn(-c3ccccc3)c2N)c2c(C)nn(-c3ccccc3)c2N)cc1,.,.,0,.,.,-14,2443
COc1cccc(CNC(=O)CCNS(=O)(=O)c2ccc3c(c2)oc(=O)n3C)c1,-7,-3,7,-5.4,-5,4,4380
CCC(C)C(NC(N)=O)C(=O)Nc1ccc(C(=O)OC)cc1 (configuration not stated),0,3,7,7.0,8,-32,4007
COc1cccc(CNCc2ccc(C(=O)O)cc2)c1OC,7,-7,0,2.3,1,-31,3421
CCN1CCN(c2ccc(S(=O)(=O)N3CCCCC3)cc2NC(=O)COc2ccc(Cl)cc2)CC1,12,4,-3,8.6,3,-8,5474
O=C(O)C(=O)/C(=C\c1ccccc1)c1ccc2ccccc2n1,.,.,0,.,.,-64,3035
O=C(COCc1nc2ccccc2c(=O)[nH]1)NCC1CCCCC1,1,17,-1,-0.7,-4,-10,8929
Cc1cccc(OCCSCc2nc3ccccc3[nH]2)c1,8,1,2,-11,8,-29,2569
Cc1cc(OCC(=O)NCc2cccnc2)c2c(C)c(Cc3ccccc3)c(=O)oc2c1,9,10,-2,1.4,-7,0,5288
COc1ccccc1NC(=O)Nc1cc(NC(=O)Nc2ccccc2OC)c(C)nc1C,16,7,7,3.3,3,-36,2731
O=C(CCCC(=O)N(CC(=O)NC1CCCCC1)c1ccccc1F)Nc1ccccn1,1,6,-9,2.4,6,-23,3685
COc1ccc(Cl)cc1NC(=O)CCCN1C(=O)CCC1=O,9,8,1,2.5,1,-22,10294
CCOC(=O)c1ccc(NC(=S)N(CCCN2CCCC2)Cc2cccs2)cc1,6,2,-6,-4.7,0,5,3314
COc1ccc(S(=O)(=O)N2CCN(CC(=O)NC3CCCC3)CC2)cc1,13,2,-7,4.2,16,-11,4129
O=C(NN=C1CC(=NNC(=O)c2ccncc2)c2ccccc21)c1ccncc1,20,11,.,7.1,6,.,.
Cc1cc(C(=O)CN2C(=O)C(=O)N(CC(C)C)C2=O)c(C)n1-c1ccccc1F,1,2,11,2.6,-1,-16,4494
CCOc1cc(/C=N/NC(=O)COc2ccc(C)cc2)ccc1OC(=O)c1cccs1,.,.,-12,.,.,-14,8123
Cc1ccccc1Cn1nc(C)c(NC(=O)/C=C/c2cnn(C)c2C)c1C,3,16,-4,4.5,2,-45,1934
O=C(/C=C/c1ccc(OC(F)F)cc1)OCC(=O)N1CCc2ccccc21,-8,-7,-4,-0.9,2,-10,5740
O=C(CN1CCC(NC(=O)c2cccc(F)c2)CC1)NCc1ccccc1F,4,5,-7,2.8,-7,-10,10075
CCC(Oc1ccccc1)C(=O)NC1CCSC1=O (configuration not stated),0,5,5,5.0,6,25,3803
CCN(C(=O)CSc1ncnc2sccc12)c1c(N)n(Cc2ccccc2)c(=O)[nH]c1=O,10,7,.,0.1,-1,-24,8732
CCN(CC)S(=O)(=O)c1ccc(NC2c3ncccc3C(=O)N2Cc2ccccc2)cc1 (configuration not stated),8,8,-4,4.3,-2,-17,10813
Cc1ccc(-c2nnc(SCCC(=O)N3CCOCC3)o2)cc1,19,8,2,9.0,11,-25,3258
COc1cccc(NC(=O)CCS(=O)(=O)c2ccc(Br)cc2)c1,7,-2,-3,5.4,13,.,3866
CCOCCCNC(=O)C1(O)c2ccccc2NC(=O)N1c1ccc(Cl)cc1 (configuration not stated),-2,0,0,-2.8,-6,-21,3776
Cc1ccc(N2C(=O)/C(=C/c3ccc(CN(CCC#N)S(C)(=O)=O)o3)C(=O)NC2=S)cc1,.,.,-4,3.5,0,0,2640
C/C(=N\NC(=O)CSc1nnc(C)s1)c1ccc(O)cc1,.,.,-1,.,.,-13,9705
COc1ccc(/C=C(/NC(=O)c2ccccc2)C(=O)NCc2ccncc2)cc1,8,-2,5,0.1,3,9,4237
CCC(C)C(CNC(CNC)C(C)O)NCCc1ccc(OC)cc1 (configuration not stated),-3,4,.,8.4,-1,.,.

# As entered above:
# CCC(C)C(CNC(CNC)C(C)O)NCCc1ccc(OC)cc1 (configuration not stated) in ugtP null kill shows -1
# CCC(Oc1ccccc1)C(=O)NC1CCSC1=O (configuration not stated) in RN4220 kill shows 5.0

# Remaining list, next part
SMILES,Mtb hypoxia inh,Mtb hypoxia inh growth,BJeLR viability,RN4220 kill,ugtP null kill,PrP UTR inh,Bead autofluor
CCCCNC(=S)N(C)/N=C/c1ccccc1F,.,.,12,.,.,-12,2435
CC1Cc2ccccc2N1C(=O)COC(=O)c1ccccc1NCCO (configuration not stated),0,9,-5,-0.7,-3,-22,6754
CC1(c2cccs2)CC(c2cccs2)=C(C#N)C(=O)N1 (configuration not stated),-7,3,2,2.2,-12,1,22806*
Cc1c(C(N)=O)c(N)c(C(=O)c2ccccc2)n1-c1ccccc1,19,7,2,4.0,-1,-29,9176
CN(c1ccc(C(=O)Nc2ccc(S(=O)(=O)N3CCCC3)cc2)cc1)S(C)(=O)=O,2,-5,10,1.1,-1,-14,4165
CCC(C)C(NC(=O)C1CCC(C)CC1)C(=O)Nc1cc(OC)ccc1OC (configuration not stated),0,5,-12,1.4,3,-22,8046
Cn1c(CN2CCCC(C(=O)c3ccc4c(c3)OCO4)C2)nc2ccccc21 (configuration not stated),9,1,-2,-4.1,4,-23,2354
O=C(Nc1cccc(Cl)c1)c1ccccc1NC(=O)C1CCCCC1C(=O)O (configuration not stated),13,12,3,4.4,4,-36,3636
COc1ccc(OCCC(=O)OCC(=O)NCc2ccco2)cc1,.,.,-5,4.3,1,-14,3819
NNC(=S)NC1CC2CC1C1C=CCC21 (configuration not stated),-3,-6,-4,0.0,29,-7,7268
CCN(CC)S(=O)(=O)c1ccc(NS(=O)(=O)c2ccc(OC)c([N+](=O)[O-])c2)cc1,8,-2,-2,11,1,-13,2284
O=C(COc1ccc(F)cc1)Nc1ccccc1N1CCOCC1,2,4,7,4.0,7,-24,?
COc1ccc(C(=O)C/C(=C\C(=O)c2ccc(C)cc2)c2ccccc2)cc1,14,19,2,-0.4,61,-17,4221
CN(C)C1=NCCN1CCCC1CCCC1,8,6,.,-1.0,-9,-10,3561
CCOc1cccc(NC(=O)c2ccc(S(=O)(=O)N(C)C)cc2)c1,6,7,.,-3.0,8,-5,5309
COc1ccc(Nc2nc(-c3ccccc3)c(C(=O)Nc3cccnc3)s2)cc1,10,9,-3,-0.9,2,-23,3989
O=S1(=O)N=C(Nc2ccc(N3CCOCC3)cc2)c2ccccc21,0,10,.,-0.4,-2,-3,11554
CCN(CC)C(=S)NC(=O)c1ccc(Cl)cc1Cl,11,2,-3,8.2,3,-46,7471
COCCCNC(=O)Cn1c(=O)oc2cc(S(=O)(=O)N3CC(C)CC(C)C3)ccc21 (configuration not stated),4,4,-4,0.2,0,-10,5925
O=C1CC(c2ccccc2)Sc2ccccc2N1 (configuration not stated),7,1,-14,9.1,14,-19,?
